TRPV1 PAM – enhances activation of the human vanilloid receptor TRPV1; 0.02% of 320,000 active; potentiation, % at 8.33 µM; TRPV1-expressing cells, Fluo-8 calcium influx, capsaicin EC20 potentiation; host cell line not named in the record; control for the full effect not named in the record; Q8NER1; active means potentiation above 80%; inconclusive means 30% to 80%; inactive means below 30%; further: 0% is about no effect
Target sequence (Q8NER1 whole entry, looked up): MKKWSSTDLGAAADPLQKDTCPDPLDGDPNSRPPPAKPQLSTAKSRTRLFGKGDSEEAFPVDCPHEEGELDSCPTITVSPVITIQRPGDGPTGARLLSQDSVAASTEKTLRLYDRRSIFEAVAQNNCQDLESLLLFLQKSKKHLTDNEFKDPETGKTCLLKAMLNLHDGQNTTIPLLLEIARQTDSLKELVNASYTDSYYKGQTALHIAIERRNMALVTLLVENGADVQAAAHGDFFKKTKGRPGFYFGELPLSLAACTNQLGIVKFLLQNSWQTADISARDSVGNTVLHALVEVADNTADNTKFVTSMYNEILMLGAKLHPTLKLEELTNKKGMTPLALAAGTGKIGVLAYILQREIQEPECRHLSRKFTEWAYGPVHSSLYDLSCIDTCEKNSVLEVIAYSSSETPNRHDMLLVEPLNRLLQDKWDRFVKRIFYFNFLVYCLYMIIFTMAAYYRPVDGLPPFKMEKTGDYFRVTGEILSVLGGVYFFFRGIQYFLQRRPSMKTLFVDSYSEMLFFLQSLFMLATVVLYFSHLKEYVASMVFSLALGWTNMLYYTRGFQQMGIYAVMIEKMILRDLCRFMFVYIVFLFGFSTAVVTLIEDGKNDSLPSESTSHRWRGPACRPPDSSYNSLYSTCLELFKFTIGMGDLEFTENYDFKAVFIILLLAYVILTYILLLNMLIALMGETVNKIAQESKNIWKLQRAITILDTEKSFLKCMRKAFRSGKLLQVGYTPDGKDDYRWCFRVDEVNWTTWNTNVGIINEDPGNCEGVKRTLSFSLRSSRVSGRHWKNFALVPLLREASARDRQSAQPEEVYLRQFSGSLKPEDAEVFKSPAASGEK
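Fluo-8 calcium influx in TRPV1-expressing cells, kinetic read (ex 480/em 520 nm). Compound added and read 3 min for agonist activity, followed by capsaicin at EC20 final and 2 min further read for enhancement.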
D2 potentiator – potentiates the human D2 dopamine receptor allosterically; P14416; DiscoveRx D2 beta-arrestin cells, luminescence, 90 min; 100% = 57 uM dopamine signal; potentiation, % (no concentration beside the values); 0.23% of 360,000 active; AID 624464; active = potentiation of 50% or more; inconclusive = 30% to 50%; inactive = 30% or less;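 further: compound concentration not given in the record; tested on top of an EC20 dose of dopamine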
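PathHunter beta-arrestin assay in DiscoveRx D2 cells. Compounds were added with an EC20 of dopamine (50 nM final) for 90 min at 37 deg C. Luminescence was read 1 h after detection reagent, with 57 uM dopamine as the EC100 control.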
ClpP mod – qHTS Assay for Activators of ClpP. 1.9% of 340,000 active. AID 651965, 2013. purified B. subtilis ClpP, FRET peptide cleavage, 20 min. Potency, µM (highest dose often 57.5 µM), inactives show at the highest dose activity change, negative = active; active = well fitted falling curve with a large enough effect; inconclusive = small, poorly fitted or top-dose-only effect; inactive = no such curve, though single readings can be large or run the other way; further: potency means the concentration at half of the fitted maximal effect; the source files actives as falling curves though it sought activators and does not explain the sign; nearly all actives have a fitted effect of over 65% in size; many hits overshoot -100%
Target sequence (P80244 whole entry, looked up): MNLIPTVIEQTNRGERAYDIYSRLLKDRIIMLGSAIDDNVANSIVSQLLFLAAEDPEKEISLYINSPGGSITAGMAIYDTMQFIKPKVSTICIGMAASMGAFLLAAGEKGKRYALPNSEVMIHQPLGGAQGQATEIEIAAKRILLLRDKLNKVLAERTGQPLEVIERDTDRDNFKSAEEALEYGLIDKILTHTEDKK
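FRET quenching reversal measured ClpP activation: 10 microg/mL B. subtilis ClpP at pH 8 with the FRET-FV decapeptide, read at 430 nm after 320 nm excitation. The 20-min minus 0-min signal was scaled between DMSO/no-enzyme wells and ADEP (5.8 microM final).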
gsp antag – antagonists of gsp mutant (McCune-Albright syndrome) | AID 624288 | gsp-mutant cells, cAMP HTRF, 30 min; control for the full effect not named in the record | 0.4% of 340,000 active | Potency, µM (highest dose often 76.9 µM), for the others: at the top dose activity change, negative = inhibition, actives largely listed as inhibitors; active = falling curve of any shape with a large fitted effect; inconclusive = falling curve, mostly with a smaller effect; inactive = flat or rising curve; cell line not stated here;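 further: intracellular cAMP measured with PDE inhibitor Ro 20-1724 present during compound exposure; potency means the concentration at half of the fitted maximal effect; on the % scale 0 is the no-effect control and ±100 the full control effect; nearly all actives have a fitted effect of over 65% in size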
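Measurement of cellular cAMP by homogeneous time-resolved fluorescence following a 30 min compound exposure at 37C. The PDE inhibitor […] was present throughout; the assay buffer was DPBS with 0.05% BSA and 0.005% Tween 20.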
Menin-MLL FL inh – displaces fluorescein MLL peptide from human menin; Fluorescence polarization, fluorescein-MLL peptide displacement from menin; FP activity change, % at 61.4 µM; 290,000 tested, under 10 active; AID 1766; inconclusive = falling polarisation curve, or a change in total fluorescence; inactive = total fluorescence flat and polarisation flat or rising; no compound was filed as active; the % refers to the polarisation; negative = inhibition;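 further: % of control where 0% means no effect; inhibitors lower the polarisation; unlabelled MLL peptide was the positive control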
gsp agonist – gsp mutant agonism; 0.13% of 340,000 active; Potency, µM (series often up to 76.9 µM), inactives show at the top dose activation (cAMP increase), usual class: activators; gsp mutant cells, cAMP HTRF, 30 min; control for the full effect not named in the record; active = well fitted activation curve with a large enough effect; inconclusive = small, poorly fitted or top-dose-only effect, or another doubt; inactive = no such curve, though single readings can be large or run the other way; cell line not stated here;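 further: phosphodiesterase inhibitor Ro 20-1724 added with compounds to block cAMP breakdown; potency means the concentration at half of the fitted maximal effect; nearly all actives have a fitted effect of over 60% in size; about a fifth of the inactives were tested at one dose only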
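Cells in DMEM/10% FBS with G418 were pretreated with compounds in DMSO plus […] (300 uM stock) for 30 min at 37C. cAMP was measured by HTRF (cAMP-d2 plus anti-cAMP antibody-K) after 30 min at room temperature.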
Sfp inh – Sfp phosphopantetheinyl transferase inhibition. Potency, µM, for inactives: max response, negative = inhibition, most hits filed as inhibitors. Biochemical Sfp PPTase activity, qHTS. AID 1490. 3.5% of 310,000 active; active means well fitted inhibition curve with a large enough effect; inconclusive means small, poorly fitted or top-dose-only effect, or another doubt; inactive means no such curve, though single readings can be large or run the other way;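 further: the enzyme is Sfp with the accession as filed and its product quenches rhodamine fluorescence; potency means the concentration at half of the fitted maximal effect; 0% = enzyme reaction without inhibitor and -100% = no enzyme wells; top concentration of the series not given in the record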
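Fluorescence-quenching assay with 15 nM Sfp, 5 uM rhodamine-CoA and 12.5 uM BHQ-2-labelled ybbR peptide in pH 7.6 Hepes/MgCl2 buffer. Enzyme was pre-incubated with compound for 15 min at room temperature. Rate was taken from the 30-min fluorescence change (525/598 nm).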
Numbers without * were called inactive; ? = inconclusive; · = not tested or not shown; & = joins results of further samples; [ ] = another dose, or the depositor's remark.

No.	Structure	TRPV1 PAM	D2 potentiator	ClpP mod	gsp antag
1	Cc1cccc(N(CC(=O)O)CC(=O)O)c1	3.5	-21.3	-1.2%	2.2%
2	CCOC(=O)c1cnc2c(Cl)c(Cl)ccc2c1N1CCN(C)CC1	-24.9	-26.3	-1.2%	24.0%
3	O=c1n(-c2ccc(Br)cc2)cnn1-c1ncccc1[N+](=O)[O-]	11.2	13.8	·	·
4	C/C(=N\NC(=O)CN(c1ccc(Oc2ccccc2)cc1)S(C)(=O)=O)C(C)(C)C	-1.3	-5.0	-0.4%	22.5%
5	CC(=O)N(Cc1cc2ccccc2[nH]c1=O)c1ccc(C)cc1	?	?	-8.5%	2.5%
6	Cc1ccc(NC(=O)N2CCC(O)(c3ccc(Cl)cc3)CC2)cc1	-0.4	-14.7	0.9%	-2.6%
7	C[C@H](CO)N1C[C@H](C)[C@@H](CN(C)C(=O)NC2CCCCC2)Oc2c(NS(=O)(=O)c3ccc(F)cc3)cccc2C1=O	·	-0.4	-5.3%	3.7%
8	Cc1ccc(-n2cc(CNCCCN3CCCC3=O)c(-c3ccc(F)cc3)n2)cc1	-7.4	2.5	·	-8.3%
9	Cc1ccc(-c2cc(O)cc3sc(=O)oc23)cc1C	-2.6	-5.7	-1.0%	-12.4%
10	CCOC(=O)CSc1nc(CC)nc2ccccc12	-7.0	4.2	0.1%	4.1%
11	C=CCNC(=O)c1ccc(-c2nc3ccccc3nc2-c2ccccc2)cc1	·	2.2	·	-19.7%
12	O=C(NC1CCCC1)C(c1ccccn1)N(C(=O)c1csnn1)C1CCCCC1 (stereo not given)	-16.5	-7.7	-3.8%	1.2%

No.	Menin-MLL FL inh	gsp agonist	Sfp inh
1	2.7	-66.4%[inhibitor]	-23.9%
2	-0.8	8.5%	3.8%
3	3.8	3.7%[15.4 µM]	14.9%
4	-1.8	-21.1%	2.5%
5	-1.5	-26.7%	?
6	-1.1	17.6%	13.6%
7	·	·	·
8	-0.3	-2.0%	-1.4%
9	-1.3	4.7%	-14.2%
10	0.8	?	4.9%
11	·	1.2%	·
12	2.5	-9.7%	12.9%

The list continues.
No.	Structure	TRPV1 PAM	D2 potentiator	ClpP mod	gsp antag
13	CC1CCC(NC(=O)C(NC(=O)c2ccccc2)C(C)C)CC1 (stereo not given)	4.8	-14.0	-1.5%	13.6%
14	Cc1ccc(O)c(CC(C)C)n1	9.8	10.5	3.55µM*	10.3%
15	CCCCCCn1cc(C(=O)O)c(=O)c2cc(F)c(N3CCCCC3)cc21	-21.9	-4.8	-17.9%	-4.5%
16	O=C1CCCN1S(=O)(=O)c1ccccc1	3.0	0.3	·	15.9%
17	CCn1c(SCC(=O)Nc2nccs2)nnc1-c1ccccc1	11.3	-0.8	-3.1%	-1.7%
18	CCOC(=O)CC(=O)CSc1nc2ccc(OC)cc2cc1C	-1.4	-1.0	·	-9.4%
19	CC(C)OC(=O)c1ccc(NC(=O)C2C3CC4OC(=O)C2C4C3)cc1 (stereo not given)	2.5	6.8	-4.6%	3.8%
20	CCOC(=O)C1CCCN(c2c(N3CCN(c4cccc(Cl)c4)CC3)c(=O)c2=O)C1 (stereo not given)	2.3	-2.4	2.0%	5.3%
21	CC1(C)OC(=O)C=C[C@]2(C)[C@H]3CC[C@@]4(C)[C@H](c5ccoc5)OC(=O)[C@H]5O[C@]54[C@]3(C)C(=O)C[C@@H]12	12.6	-4.9	-1.2%	2.0%
22	CCc1ccc(CNc2ccc3c(c2)ncn3C)cc1	12.2	-5.9	28.2µM*	-27.9%
23	O=C(O)c1cc(N/N=C/c2ccc(-c3ccccc3)cc2)ccc1Cl	-12.5	-2.3	-11.8%	0.1%
24	C=C(C)Cn1c(SCC(=O)O)nc2c1c(=O)[nH]c(=O)n2C	7.5	-3.7	0.8%	9.7%

No.	Menin-MLL FL inh	gsp agonist	Sfp inh
13	0.6	16.5%	-1.3%
14	-0.3	?	7.1%
15	-0.6	-10.4%	5.8%
16	0.4	2.7%	20.2%
17	0.6	-14.3%	9.3%
18	-21.1	-5.0%	-18.3%
19	-1.9	1.0%	4.5%
20	-3.9	-24.6%	-1.7%
21	·	·	·
22	-0.5	7.3%	-5.2%
23	5.7	-0.4%	-19.9%
24	1.8	1.5%	19.8%

(cont.)
No.	Structure	TRPV1 PAM	D2 potentiator	ClpP mod	gsp antag
25	COc1ccc(OCc2cc(C(=O)O)c(C)o2)cc1	7.1	·	·	·
26	CN(Cc1cnccn1)Cc1nc(Cc2ccccc2Cl)no1	-8.8	-0.4	·	11.4%
27	Cc1ccc(C(=O)OCC(=O)N2CC(C)CC(C)C2)cc1S(=O)(=O)N1CCCCC1 (stereo not given)	-25.5	-6.3	·	?
28	COC(=O)C1=C(C)N(Cc2ccccc2)C(=NCCCCO)N[C@H]1CCc1ccccc1	26.6	-6.2	-5.3%	11.3%
29	CNC(=S)N(CCc1c(C)[nH]c2ccc(Cl)cc12)Cc1cc(OC)c(OC)c(OC)c1	2.2	3.6	0.9%	?
30	CC(=O)Nc1ccc(NC(=O)C(NC(=O)c2ccc(Cl)cc2)C(C)C)cc1 (stereo not given)	·	-5.5	-0.1%	·
31	CC1CCCC(N2CCN(C(=O)c3ccccc3F)CC2)C1 (stereo not given)	-10.3	-6.4	1.0%	1.2%
32	Cc1[nH]c2ccccc2c1C(=O)C(=O)N1CCN(c2ccccc2)CC1	-0.1	-6.4	1.4%	-8.2%
33	N#CC1=C(N)SC(N)=C(C#N)C1CCc1ccccc1	-26.6	28.3	31.6µM*	?
34	O=C(O)C1=NOC(CNC(=O)c2ccccc2Cl)C1 (stereo not given)	6.9	7.1	·	5.4%
35	O=S(=O)(Nc1ncccn1)c1ccc(NC(=S)Nc2ccccc2Cl)cc1	28.0	-12.3	-1.9%	-6.4%
36	Cc1cc(C)c2c(N)c(C(=O)c3ccccc3)sc2n1	-32.5	1.5	6.6%	-20.8%

No.	Menin-MLL FL inh	gsp agonist	Sfp inh
25	-1.6	·	18.7%
26	-1.7	11.2%	-0.3%
27	·	10.1%[15.4 µM]	·
28	-6.8	-1.1%	-3.0%
29	3.1	-0.4%	0.5%
30	·	?	·
31	-0.1	-4.2%[15.4 µM]	10.4%
32	-4.2	-4.7%	10.8%
33	?	2.2%	?
34	1.0	0.6%[15.4 µM]	18.0%
35	4.9	4.6%	?
36	1.7	-1.2%	-4.2%

(continued)
No.	Structure	TRPV1 PAM	D2 potentiator	ClpP mod	gsp antag
37	Cc1cc2n(n1)SC(Nc1ccccc1)N2 (stereo not given)	-4.6	15.9	-0.9%	3.6%
38	CC(C)Oc1ccc(CNC(=O)CCC(=O)N2CC(C)Sc3ccccc32)cc1 (stereo not given)	9.0	0.0	-1.5%	-11.1%
39	c1ccc2c(c1)Cn1c-2nc2ccccc21	-26.1	-6.6	25.1µM*	-2.2%
40	Cc1cc2cc(CCNC(=O)c3ccc(C)c([N+](=O)[O-])c3)c(=O)[nH]c2cc1C	-3.2	11.2	-3.2%	-26.7%
41	CCOC(=O)C1(CCc2ccccc2)CCN(C(=O)c2cccc(C)n2)CC1	-17.3	-8.9	-0.2%	-1.3%
42	COc1ccc(S(=O)(=O)N2c3cc(C)ccc3OCC2C(C)(C)C)cc1 (stereo not given)	-9.9	-18.0	-2.5%	-2.1%
43	COc1ccc(S(=O)(=O)N2CCCC(C(=O)N3CCOCC3)C2)cc1OC (stereo not given)	-1.1	-8.7	·	11.9%
44	Cc1nc2cc(C(=O)NCc3cccnc3)ccc2n1-c1ccc(F)cc1F	-8.2	-9.7	·	6.9%
45	COC(=O)CCNC(=O)c1ccc2nc(Cc3ccc(OC)c(OC)c3)oc2c1	14.5	-3.7	-1.1%	-16.9%
46	O=C(COC(=O)c1ccc(S(=O)(=O)N2CCCC2)cc1)NCc1ccco1	-2.7	-1.5	·	-11.9%
47	O=C(c1ccc(S(=O)(=O)N2CCOCC2)cc1)N1CCCc2ccccc21	4.3	21.4	-3.0%	-6.4%
48	Cc1cc2nncn2c2ccccc12	-1.9	-22.3	-12.9%	11.9%

No.	Menin-MLL FL inh	gsp agonist	Sfp inh
37	15.6	-4.4%	-21.6%
38	-4.4	19.1%	7.2%
39	0.4	2.8%	-0.9%
40	-7.3	7.2%	-2.3%
41	-2.2	-48.3%[inhibitor]	-9.5%
42	9.4	11.3%	-2.6%
43	6.7	-20.7%	14.4%
44	-3.5	-55.6%[inhibitor]	8.9%
45	-4.7	-7.7%	21.0%
46	5.5	1.5%[15.4 µM]	-2.0%
47	4.6	6.8%	12.4%
48	1.7	6.0%	-2.7%

Following part
No.	Structure	TRPV1 PAM	D2 potentiator	ClpP mod	gsp antag
49	O=C(O)c1ccccc1Nc1ccccc1	4.2	-5.1	-2.4%	-11.2%
50	CC1(C)OC(=O)N(c2ccccc2)C12C=Cc1cc(Br)ccc1O2 (stereo not given)	-3.6	-8.3	-2.1%	?
51	CC12CN3CC(C)(CN(C1)C3c1ccc(Cl)cc1)C2 (stereo not given)	2.7	-2.7	-1.4%	-1.0%
52	COc1ccccc1NC(=O)CSc1nc(N)c(-c2ccccc2)c(=O)[nH]1	11.7	-6.6	·	-2.0%

No.	Menin-MLL FL inh	gsp agonist	Sfp inh
49	1.6&0.7	·	25.3%&21.9%&1.0%
50	-1.2	0.9%	-6.3%
51	-2.9	13.4%[15.4 µM]	-0.1%
52	7.0	-12.5%[15.4 µM]	-13.3%

2 compounds from above with just gsp antag:
| item | Compound | gsp antag |
| --- | --- | --- |
| 50 | CC1(C)OC(=O)N(c2ccccc2)C12C=Cc1cc(Br)ccc1O2 (stereo not given) | ? |
| 52 | COc1ccccc1NC(=O)CSc1nc(N)c(-c2ccccc2)c(=O)[nH]1 | -2.0% |

Sorted by the number under gsp antag (smallest number first): 3 of the compounds above.
nr	compound	gsp antag
49	O=C(O)c1ccccc1Nc1ccccc1	-11.2%
52	COc1ccccc1NC(=O)CSc1nc(N)c(-c2ccccc2)c(=O)[nH]1	-2.0%
51	CC12CN3CC(C)(CN(C1)C3c1ccc(Cl)cc1)C2 (stereo not given)	-1.0%

Compound activity (PubChem BioAssay)
